From PubChem BioAssay
A1 inh: inhibitors of the anti-apoptotic protein A1, read as caspase activation; caspase activation, % (test concentration not listed); hit rate 0.066% among 330,000; MEF A1-2A-BIM cells, Caspase-Glo 3/7 luminescence, 3 h; percent of clofoctol response, vehicle zero; AID 2462;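 active means over half of replicate activation scores above 10%, or exactly half above 10 with the replicate mean above 10; inconclusive means replicate mean below 10 yet half the replicates above 10; inactive means over half of replicates below 10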;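 further: wells of about 30 µL received 50 nL stock; many hits fall short of the cut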
RanGTP-Impb inh: inhibitors of RanGTP-importin-beta interaction, primary screen, biochemical, FRET, CFP-Ran, YFP-importin-beta, homogeneous; cell-free CFP-Ran/YFP-importin-beta FRET ratio; inhibition, % (no concentration beside the values); hit rate 1.1% among 300,000;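 active means most replicates above 15%; inconclusive means exactly half above 15%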;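 further: 0% = DMSO wells and 100% = Ran loaded with GDP instead of GTP; wells of about 40 µL received 100 nL stock; the first replicate is given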
T cruzi inh: blocks replication of Trypanosoma cruzi; T. cruzi beta-gal in NIH3T3, luminescence, 90 h; hit rate 1.4% among 300,000; AID 1885; inhibition, % (concentration not given with the values);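 active means mean inhibition across valid replicates above about 55%, limit read from the data; inconclusive means mean below that limit but half or more replicates reach it; inactive means mean below it, under half of replicates reach it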;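 further: signal also drops with host cell toxicity which is not excluded here; 0% = plate median of DMSO wells and 100% = zero luminescence signal; higher percent means less beta-gal luminescence so fewer parasites; stock transfer was 50 nL into about 50 µL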
MLL AF4-AF9 inh: inhibitors of human MLL-AF4/AF9 interaction; P42568; AlphaScreen, biotin-AF4 peptide binding to FLAG-AF9; inhibition, % at 10 µM; hit rate 0.47% among 350,000; AID 651704;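 active means every replicate reaching a set inhibition limit, whatever the replicate mean, cut at about 25% in these data; inconclusive means mean inhibition reaches that limit but some replicates miss it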;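 further: 0% = plate neutral control median and 100% = total signal loss; the record names both 10 and 1 µM as test concentration; the first replicate is given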
Target sequence (P42568 whole entry, looked up): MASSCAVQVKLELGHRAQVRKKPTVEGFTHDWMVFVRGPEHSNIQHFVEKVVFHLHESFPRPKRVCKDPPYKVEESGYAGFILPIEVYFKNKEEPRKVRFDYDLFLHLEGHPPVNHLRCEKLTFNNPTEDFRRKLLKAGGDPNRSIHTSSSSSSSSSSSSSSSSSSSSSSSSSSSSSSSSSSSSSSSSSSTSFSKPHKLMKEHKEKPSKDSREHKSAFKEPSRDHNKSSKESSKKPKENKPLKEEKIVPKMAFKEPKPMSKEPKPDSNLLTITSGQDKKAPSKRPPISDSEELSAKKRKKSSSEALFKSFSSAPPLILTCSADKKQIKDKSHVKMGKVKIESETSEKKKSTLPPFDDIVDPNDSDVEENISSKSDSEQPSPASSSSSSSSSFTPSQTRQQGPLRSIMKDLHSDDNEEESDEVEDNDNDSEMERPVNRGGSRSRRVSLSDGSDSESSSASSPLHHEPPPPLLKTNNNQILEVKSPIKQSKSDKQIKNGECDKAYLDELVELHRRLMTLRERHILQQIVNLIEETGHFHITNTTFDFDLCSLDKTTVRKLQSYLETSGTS
Calb FLC: C. albicans growth modulation with fluconazole; C. albicans CaCi-2 (fluconazole-resistant clinical isolate) + fluconazole, Alamar Blue growth, 48 h; growth inhibition, % (concentration not given with the values); hit rate 0.57% among 300,000;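 active means most replicates above 75%; inconclusive means exactly half above 75%; inactive means most below 75%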;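 further: all wells also contain fluconazole at 8 µg/ml as a sub-toxic cotreatment; 0% = median of DMSO wells and 100% = median of geldanamycin control wells; wells of about 8 µL received 7.5 nL stock; the first replicate is given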
Beta cell apopt: beta cell apoptosis inhibition; protection from apoptosis, % (concentration not given with the values); hit rate 0.8% among 300,000; AID 435005; INS-1E cytokine-induced death, ATP luminescence, 48 h; percent of positive-control rescue, neutral wells zero;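 active means all replicates at 75% or more, or half of them and the mean; inconclusive means half reach 75% but not the mean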;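 further: 0% = cytokine-treated negative control wells and 100% = positive control rescue; higher means more ATP so stronger rescue from cytokine killing; wells of about 40 µL received 100 nL stock; the first replicate is given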
Vif TR-FRET: inhibitors of Vif binding to APOBEC3G peptide, primary screen, biochemical, TR-FRET, GST-Vif 1-94, biotin-A3G peptide, dose response retest (AID 1117319) | inhibition, %, or IC50 in µM where a hit was titrated | TR-FRET GST-Vif / biotin-A3G peptide binding; higher % means a stronger effect; test concentration not given here; strong numbers were not always called active | hit rate 0.57% among 260,000;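 active means above the screen mean plus three standard deviations and confirmed in dose response; inconclusive means results disagree or hit not tested in dose response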;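 further: Vif residues 1-94 fused to GST binding biotinylated APOBEC3G peptide 110-148; 0% = full assay without inhibitor and 100% = GST in place of GST-Vif; retest series ran down from 100 µM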
Ecoli rRNA inh: inhibitors of bacterial rRNA selective over humanized ribosomes; GFP signal change (wild-type ribosome), % (concentration not given with the values); hit rate 1.6% among 350,000; E. coli WT GFP vs humanized-ribosome RFP mutants, fluorescence, 24 h; active compounds read low; DMSO median 0, no signal -100; AID 720706;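 active means significant combined selectivity score with lowered wild-type GFP, culture density cut under 30%, mutant RFP and density less affected; inactive means any of these conditions unmet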; further: one replicate is shown; some compounds called inactive have numbers as strong as hits
Ecoli rRNA inh OD600: recorded beside Ecoli rRNA inh, whose call it bears; OD600 change, %; measured here: OD600 growth;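 optical density of the mix in the first replicate; 0 = DMSO median and -100 = no signal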
Ecoli rRNA inh RFP: also measured in Ecoli rRNA inh; calls as there; RFP signal change, %; measured here: RFP humanized mutant strains;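 first replicate; 0 = DMSO median and -100 = no signal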
Active calls of the source: *; ? = inconclusive; nt = no result given; & = joins results of further samples. The list is partial; rates above refer to the full screens.

Compound	A1 inh	RanGTP-Impb inh	T cruzi inh	MLL AF4-AF9 inh	Calb FLC	Beta cell apopt	Vif TR-FRET	Ecoli rRNA inh	Ecoli rRNA inh OD600	Ecoli rRNA inh RFP
C/C(CC(=O)NC(C)C)=N\NC(=O)COc1cc(C)c(Br)cc1Br	-0.1	-5.5	-11	nt	1	-1	8%	nt	nt	nt
CCC(CC)C(=O)Nc1nnc(SCC(=O)NC2CCCCC2)s1	0.6	?	-2	2.3	-7	-3	-12%	3	7	0.9
CCOC(=O)C1CCCN(C(=S)NC2CCCC2)C1 (stereo unspecified)	1.5	-1.2	-8	1.3	-4	-7	nt	2	2	-2.1
O=C(CSC1=NS(=O)(=O)c2cc(F)ccc2N1)Nc1ccccc1F	-0.3	0.2	-7	-2.3	6	4	8%	2	-9	-3.0
CN(Cc1ccccc1)C(=O)c1nc2ccccn2c1CN1CCC(N2CCOCC2)CC1	-0.1	-1.3	16	7.7	-9	-6	?	-2	6	-10
CC(=O)c1ccc(NC(=S)Nc2ccc3[nH]c(=O)[nH]c3c2)cc1	1.5	-1.0	-13	0.0	-28	nt	1%	15	13	7.9
Cc1ccc(C)c(C(=O)COC(=O)c2cccc(N3C(=O)c4c(C)nc5ccccc5c4C3=O)c2)c1	0.4	-2.0	-15	nt	-9	-7	-1%	nt	nt	nt
CN(c1ccccc1)S(=O)(=O)c1cccc(C(=O)NNC(=O)c2ccccc2)c1	0.1	-2.8	8	-1.0	-9	23	11%	-6	-7	2.5
O=C(Nc1ccccc1Cl)NC1(C(=O)NCCCN2CCOCC2)CCCCC1	-0.7	-2.7	-7	nt	3	-3	-1%	nt	nt	nt
O=C(/C=C/c1ccc([N+](=O)[O-])cc1)c1cccs1	-0.4	-2.7	-2	-2.6	-6	-2	0%	1	-1	1.8
Cc1ccc(-c2nc(CS(=O)(=O)CC(=O)NCCN3CCCC3)c(C)o2)cc1	0.1	6.7	-12	2.1	8	-6	nt	4	1	1.6
Cc1ccc(SCC(=O)N2CCOCC2)cc1	-0.1	-0.6	1	nt	-14	-6	9%	nt	nt	nt
Nc1nc(N2CCCCC2)nc2ccccc12	-0.5	3.2	3	nt	-3	-1	-9%	nt	nt	nt
Cc1cc(Br)ccc1NC(=O)CN(C)C(=O)Cn1c(=O)cnc2ccccc21	0.1	0.0	5	0.7	-10	1	nt	5	3	2.1
O=C(O)c1ccc(S(=O)(=O)c2ccccc2)cc1	0.3	4.0	-33	nt	-1	0	25%	nt	nt	nt
COC(=O)CN(C)C(=O)c1ccc2nc(Cc3cccc(Cl)c3)oc2c1	-1.4	2.2	2	-3.2	6	-1	nt	5	-5	6.2
O=C(Cc1ccccc1)NCCCc1ccccc1	-0.4	?	-8	nt	-8	-2	5%	nt	nt	nt
O=c1[nH]nc(-c2ccc(F)cc2)cc1Cc1ccccn1	0.7	-25	-11	-2.1	0	-4	-6%	1	11	4.4
CC(C)CC(=O)NC1(C(F)(F)F)C(=O)N(Cc2ccccc2)C2=C1C(=O)CC(C)(C)C2 (stereo unspecified)	-0.3	1.0	1	nt	2	3	-1%	nt	nt	nt
O=C(O)c1ccc(N2Cc3ccccc3C2)cc1O	-7.7	-0.6	23	nt	1	6	19%	nt	nt	nt
CCC(C)NCCOc1cccc(Br)c1 (stereo unspecified)	0.9	6.3	9	1.3	-4	-1	nt	9	4	-2.1
CC(=O)c1ccc(C(=O)NC2CCCN(Cc3ccccc3F)C2)s1 (stereo unspecified)	-0.2	-0.4	-3	1.3	-3	-4	nt	1	7	-1.7
COc1ccc(CCC(=O)N2CCN(C3CCCCC3)CC2)cc1	-0.2	3.7	62*	nt	-47	-3	0%	nt	nt	nt
Cc1cc(=O)[nH]c2ccc(S(=O)(=O)NCc3ccccc3)cc12	0.7	5.8	-10	-8.3	-7	6	nt	7	5	0.5
COc1ccc2cc(/C=C/C(=O)c3ccco3)c(Cl)nc2c1	-0.2	0.3	-14	nt	56	-8	17%	nt	nt	nt
CCOC(=O)C1CCN(C(=O)c2sc3nc(-c4ccc(F)cc4)cn3c2C)CC1	-0.4	7.5	28	nt	-5	-8	-2%	nt	nt	nt
O=C(CSc1nnc(Cc2cc(=O)[nH]c(=O)[nH]2)n1-c1ccc(Cl)cc1)N1CCc2ccccc21	-0.5	?	-1	nt	?	-6	-2%	nt	nt	nt
Cc1ccccc1NC(=O)c1cn(-c2ccccc2)nc1-c1ccccc1	1.6	-2.6	-1	-0.9	-47	11	nt	1	8	-0.7
COc1ccc(OC)c(NC(=O)Nc2ccccc2C)c1	0.6	0.6	-19	nt	-3	-3	-8%	nt	nt	nt
Cn1c(Cc2ccccc2)nnc1SCC(=O)c1ccc(Br)s1	-0.4	-2.9	-9	nt	1	-10	16%	nt	nt	nt
COc1ccc(C(=O)Nc2cccc(C(=O)N3CCN(C)CC3)c2)cc1	-0.9	-0.1	-5	nt	-2	-5	66%	nt	nt	nt
CCCCc1c(O)nc(SCC(=O)N2CCOCC2)[nH]c1=O	0.0	2.1	-5	nt	-1	-7	26%	nt	nt	nt
O=C1NC(=O)C2(COC(c3ccncc3)OC2)S1 (stereo unspecified)	-0.2	-3.9	0	-0.1	7	-6	nt	-1	4	-1.8
COc1cccc(NC(=S)/C(=C(\[O-])c2cc(C)n(-c3ccccc3F)c2C)[n+]2ccc(N(C)C)cc2)c1	-0.1	-1.2	75*	21	-9	3	0%	10	10	2.6
COc1ccc(/C=C2/C(=N)N3N=C(CC(=O)N4CCCC4)SC3=NC2=O)cc1	-0.2	1.3	-5	0.6	2	-10	-6%	1	2	-0.9
Cc1nc2ccc(NC(=O)CS(=O)(=O)c3ccc(F)cc3)cc2s1	-0.5	4.0	-2	-1.0	12	-3	4%	-2	0	2.4
Cc1cc(C)n2nc(SCc3nnc(-c4cccs4)o3)nc2n1	0.1	2.0	-2	-2.8	5	2	-7%	14	12	0.1
S=c1[nH]c(-c2ccc(Br)cc2)cn1CCc1ccccc1	0.1	-0.4	0	-2.2	3	3	8%	-6	3	0.9
Cc1[nH]c2ccccc2c1C(=O)CN1CCCCC1C (stereo unspecified)	0.3	5.0	11	nt	0	-2	1%	nt	nt	nt
Nc1c(Cl)cc(-c2csc(NC(CO)c3nc4ccccc4n3CCOCCO)n2)cc1Cl (stereo unspecified)	0.4	3.2	-7	4.1	19	6	nt	-3	-3	9.7
COc1ccccc1CC(=O)OC(C)C(=O)Nc1ccc(S(=O)(=O)N2CCCCC2)cc1 (stereo unspecified)	-0.8	nt	nt	0.8	nt	0	-9%	-20	-22	4.8
Cc1ccc(S(=O)(=O)n2nc(OC(=O)c3cccc(F)c3)cc2N)cc1	0.3	-0.5	-16	-10	8	-5	nt	6	12	-2.6
COc1cc(OC)cc(-c2c(C#Cc3ccsc3)c3cc(-c4ccc5cc[nH]c5c4)ccc3n2C)c1	-0.4	nt	nt	1.1	nt	5	nt	5	13	2.3
CCCn1c(SCC(=O)NC2CCCCC2)nnc1-c1ccccn1	-0.3	5.6	-7	-0.7	1	2	7%	2	2	1.7
Cc1cc(C)nc(NS(=O)(=O)c2ccc(N/C=C\C(=O)c3cccs3)cc2)n1	-0.1	?	-9	-0.9	-11	-15	2%	-3	-9	3.6
O=C1CS/C(=N/N=C/c2cccs2)N1Cc1ccc(F)cc1	0.2	4.3	12	-1.1	-1	5	26%	6	3	2.0
CC1CCCCN1S(=O)(=O)c1ccc(C(=O)Nc2nnc(-c3ccco3)o2)cc1 (stereo unspecified)	0.5	7.5	-45	3.7	17	0	nt	-41	-69	-10
CC(CCc1ccccc1)NC(=O)C(=O)NCc1ccccc1 (stereo unspecified)	-0.1	-1.0	-14	nt	-1	-6	-4%	nt	nt	nt
COc1ccc(OC)c(S(=O)(=O)N(C)CC(=O)N2CCN(c3cccc(Cl)c3)CC2)c1	-0.1	-1.4	9	nt	40	4	4%&-1%	nt	nt	nt
O=C(Nc1ccc(N2CCN(C(=O)c3ccc(Cl)cc3)CC2)cc1)c1cccnc1	0.2	0.2	-11	nt	1	104*	7%	nt	nt	nt

Remaining list, next part
Compound	A1 inh	RanGTP-Impb inh	T cruzi inh	MLL AF4-AF9 inh	Calb FLC	Beta cell apopt	Vif TR-FRET	Ecoli rRNA inh	Ecoli rRNA inh OD600	Ecoli rRNA inh RFP
COC(=O)CCSCC(=O)Nc1nnc(C)s1	0.4	-1.8	-3	27*	-1	-16	11%	1	9	-8.3
O=c1ccc2ccccc2n1Cc1cccc(F)c1	?	0.8	11	0.1	10	-5	nt	-3	-3	-0.9
CCC(CO)Oc1cc(NC(=O)c2ccc(F)cc2)c2ncn(C(C)C)c2c1 (stereo unspecified)	-0.8	nt	nt	-10	nt	0	nt	7	16	6.4
Cc1nc(Cl)sc1C(=O)Nc1cccc(Cl)c1C	-0.4	3.0	-11	nt	-15	4	2%	nt	nt	nt
C=CCOC(=O)C1=C[C@H](c2coc3ccccc3c2=O)C[C@H](OCc2ccc(CO)cc2)O1	1.5	-1.2	7	0.7	-3	-3	nt	-21*	-13*	-2.6*
CC(=O)O[C@H]1C[C@@]2(O)[C@@H](OC(=O)c3ccccc3)C3[C@@](C)([C@@H](O)C[C@H]4OC[C@@]34OC(C)=O)[C@@H](O)[C@H](OC(C)=O)C(=C1C)C2(C)C (stereo partly specified)	-0.2	1.2	3	0.9	0	nt	nt	nt	nt	nt
O=C(NNC(=O)c1cnccc1C(F)(F)F)c1cccc(Cl)c1	-0.3	2.0	-15	0.1	-3	3	-1%	-4	4	-2.4
Cc1occc1C(=O)N1CCC2(CCCN(Cc3ccc(F)c(F)c3)C2)C1 (stereo unspecified)	0.4	4.2	47	3.5	0	-1	-12%	-2	-12	-3.7
CCOCCCNC(=O)C1CCCN1S(=O)(=O)c1ccc(Cl)cc1 (stereo unspecified)	-0.4	2.5	-8	nt	-4	-4	-5%	nt	nt	nt
